High-throughput results deposited in PubChem by National Center for Advancing Translational Sciences (NCATS).
CtBP-E1A blk – blocks the CtBP interaction with E1A. activity change, % (no concentration beside the values). hit rate 0.49% among 340,000. AlphaScreen GST-E1A/His-CtBP binding, 1536-well; stronger effect = lower value; control for the full effect not named in the record; in the data active means activity change below about -65%; inconclusive means about -30% to -65%; inactive means above about -30%; further: on the % scale 0 is the no-effect control and ±100 the full control effect; compound concentration not given in the record
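Protein mix (5X: 125 nM each GST-E1A, His-CtBP) was incubated with pinned compound 2 h at 37 deg C in dark, in 50 mM Tris pH 8.0 buffer with 300 mM NaCl. Glutathione donor and nickel acceptor beads followed; AlphaScreen signal read after 1 h.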
TRPML1 blocker – blocks the human TRPML1 channel; activity change, negative = inhibition, % (test concentration not listed); TRPML1-inducible cells, Ca2+ dye fluorescence, FDSS; stronger effect = lower value; inhibition of EC80 agonist-evoked calcium signal; Q9GZU1; AID 624415; hit rate 0.02% among 390,000; in the data active means activity change below about -50%; inconclusive means about -30% to -50%; inactive means above about -30%;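 further: stimulus is agonist 54-4 at its EC80 concentration; on the % scale 0 is the no-effect control and ±100 the full control effect; compound concentration not given in the record; the text of the record puts the active cut at -80%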
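Tet-induced TRPML1-DL cells loaded with Ca8 no-wash calcium dye were read kinetically on FDSS. Compound addition was followed by EC80 agonist 54-4 (4 uM final); inhibition was read over 110 s.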
D2 potentiator – potentiates the human D2 dopamine receptor allosterically; P14416; DiscoveRx D2 beta-arrestin cells, luminescence, 90 min; 100% = 57 uM dopamine signal; potentiation, % (no concentration beside the values); hit rate 0.23% among 360,000; AID 624464; active = potentiation of 50% or more; inconclusive = 30% to 50%; inactive = 30% or less;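 further: compound concentration not given in the record; tested on top of an EC20 dose of dopamine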
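PathHunter D2 cells, attached overnight at 37 deg C, received compound in DMSO plus dopamine at EC20 (50 nM final) for 90 min at 37 deg C. Beta-arrestin recruitment was read as luminescence after 1 h with detection reagent at ambient temperature.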
TRPML1 ag – agonists of human TRPML1 channel; Q9GZU1; AID 624414; activation, % (concentration not given with the values); hit rate 0.12% among 410,000; TRPML1-expressing cells, Ca2+ dye fluorescence, FDSS; host cell line not named in the record; reference of the full effect not given here; in the data active = activation above about 50%; inconclusive = about 30% to 50%; inactive = below about 30%; further: 0% is about no effect; the text of the record puts the active cut at 80%
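Kinetic FDSS Ca2+ read in Tet-induced TRPML1-DL cells (ABD Ca8 dye plus quencher, 45-90 min RT loading): baseline, then compound, then 110 s agonist window; EC80 agonist 54-4 at 4uM final added afterwards for a 110 s antagonist window.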
TRPV1 potentiator – enhances activation of the human vanilloid receptor TRPV1 | Q8NER1 | TRPV1-expressing cells, Fluo-8 calcium influx, capsaicin EC20 potentiation; host cell line not named in the record; control for the full effect not named in the record | potentiation, % at 8.33 µM | hit rate 0.02% among 320,000 | AID 540277; active means potentiation above 80%; inconclusive means 30% to 80%; inactive means below 30%; further: 0% is about no effect
Target sequence (Q8NER1 whole entry, looked up): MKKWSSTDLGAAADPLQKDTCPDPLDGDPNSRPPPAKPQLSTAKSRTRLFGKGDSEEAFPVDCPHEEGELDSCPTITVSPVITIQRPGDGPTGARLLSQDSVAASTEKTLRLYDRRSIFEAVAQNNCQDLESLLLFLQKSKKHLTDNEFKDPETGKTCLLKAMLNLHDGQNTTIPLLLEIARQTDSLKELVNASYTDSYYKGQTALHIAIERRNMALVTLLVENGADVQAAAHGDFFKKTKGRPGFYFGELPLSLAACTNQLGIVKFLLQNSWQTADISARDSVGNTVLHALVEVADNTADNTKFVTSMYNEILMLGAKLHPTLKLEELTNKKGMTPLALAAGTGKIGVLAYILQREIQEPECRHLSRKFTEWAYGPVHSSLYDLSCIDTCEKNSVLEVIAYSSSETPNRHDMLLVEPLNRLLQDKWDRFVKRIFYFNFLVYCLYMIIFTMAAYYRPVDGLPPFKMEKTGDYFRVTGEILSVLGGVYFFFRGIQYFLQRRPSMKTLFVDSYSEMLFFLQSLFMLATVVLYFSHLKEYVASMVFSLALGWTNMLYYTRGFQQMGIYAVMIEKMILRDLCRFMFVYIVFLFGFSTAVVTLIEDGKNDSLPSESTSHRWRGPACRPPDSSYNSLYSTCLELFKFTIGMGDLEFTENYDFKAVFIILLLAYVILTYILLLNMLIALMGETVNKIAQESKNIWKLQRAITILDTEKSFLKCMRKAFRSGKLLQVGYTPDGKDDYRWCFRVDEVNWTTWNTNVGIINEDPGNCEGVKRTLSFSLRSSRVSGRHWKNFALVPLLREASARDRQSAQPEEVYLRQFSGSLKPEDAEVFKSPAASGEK
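Cells expressing TRPV1 were dye-loaded with Fluo-8 and read kinetically: 10 s baseline, 3 min after compound (agonist portion), then 2 min after EC20 capsaicin (allosteric enhancer portion). Calcium-bound dye fluorescence at 480/520 nm.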
Six1-Eya2 blk – blocks human Six1 binding to Eya2; Q15475+O00167; AlphaScreen GST-Six1/His-Eya2 binding, biochemical; stronger effect = lower value; control for the full effect not named in the record; activity change, % (test concentration not listed); hit rate 0.56% among 360,000; in the data active = activity change below about -65%; inconclusive = about -30% to -65%; inactive = above about -30%; further: on the % scale 0 is the no-effect control and ±100 the full control effect; compound concentration not given in the record
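AlphaScreen luminescence read after one hour at 37 °C in darkness. Pin-transferred compounds met GST-Six1 and His-Eya2 protein (5X stock 250 nM/500 nM) plus glutathione donor and Ni-chelate acceptor beads (5X, 50 ug/mL).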
* = called active by the depositor; ? = inconclusive; . = no result given; & = joins results of further samples.

SMILES	CtBP-E1A blk	TRPML1 blocker	D2 potentiator	TRPML1 ag	TRPV1 potentiator	Six1-Eya2 blk
N#Cc1cccc(NC(=O)c2cc(C3CCCCN3C(=O)CCCc3ccccc3)on2)c1 (stereo not given)	-1	.	2	0.8	.	-7
CCN(Cc1ccccc1)C(=O)CN1C(=S)NC(C)(C)CC1C (stereo not given)	5	-6	-16	-0.2	11	3
CC(C)(C)OC1NS(=O)(=O)OCC1NCOC(Cl)(Cl)Cl (stereo not given)	-6	8	-5	-0.4	-5	-7
COc1ccc(S(=O)(=O)N(CC(=O)N/N=C/c2ccccc2C(=O)O)c2ccccc2OC)cc1	-14	.	-9	.	9	1
O=C1C=C(NNC(=O)c2cccnc2)CC(c2ccco2)C1 (stereo not given)	9	16	3	7.2	7	-3
Cc1ccc(C2C(C(=O)c3cc4ccccc4o3)=C(O)C(=O)N2CCN2CCOCC2)cc1 (stereo not given)	.	-20	-13	0.5	0	2
C=CCn1c(SCC(=O)Nc2cccc3ccccc23)nnc1-c1cnccn1	0	-7	-11	1.0	0	0
COCCNC(=O)c1ccc(Cl)c(Cl)c1	3	26	-11	-0.7	-7	0
CCN(CC)S(=O)(=O)c1ccc(NS(=O)(=O)c2ccc(O)c([N+](=O)[O-])c2)cc1	5	8	-30	0.8	10	9
CN(C)c1cccc2c1c(NC(=O)Nc1ccc(F)cc1F)nn2C	.	-4	-1	7.4	-19	0
CC(=O)N/C(=C/c1ccc2c(c1)OCO2)C(=O)NCC(=O)O	1	3	11	0.2	-12	17
Nc1cc(-c2ccccc2)nn1Cc1ccccc1	-20	37	-15	-0.7	4	-17
CCc1ccc(CN2CCC(n3nccc3NC(=O)c3ccc4c(c3)OCO4)CC2)cc1	1	5	-36	0.8	12	-2
Cc1ccc(C)c(NC(=S)NNC(=O)c2csc(C(C)C)c2)c1	6	2	-18	2.1	4	-1
CCOC(=O)CSC(C)C(=O)Nc1nnc(C(C)C)s1 (stereo not given)	3	1	1	-0.2	0	5
Cc1ccc(NC(=S)N2CCCC2)cc1C	0	0	-4	-0.9	3	1
Cc1ccc(S(=O)(=O)Nc2ccc(C(=O)NCc3ccccn3)cc2)cc1	12	-7	19	0.9	8	7
O=C1C[C@@H]2c3c(cccc3CN1Cc1ccccc1Cl)C[C@@H](O)[C@H]2O	.	0	1	0.1	.	0
COc1cc(OC)cc(C(=O)N[C@H](C(=O)Nc2ccc(F)cc2F)C(C)C)c1	.	-21	-8	0.7	-13	-1
O=C(NCCS(=O)(=O)NCc1ccc(Cl)cc1)c1ccccc1	0	-19	-6	-0.4	13	10
CSCc1c(C(=O)NC2CCCc3ccccc32)oc2ccccc12 (stereo not given)	-1	-4	-17	1.2	-7	-4
O=C(Nc1cccc(C(=O)N2CCN(Cc3ccccc3)CC2)c1)c1ccccc1	1	12	-24	-0.2	-6	0
CC(C)(C)c1ccc(C(=O)CCC(=O)NCc2ccccc2)cc1	1	9	-2	1.4	-9	-2
COc1ccc([C@H]2C[C@H](O)[C@@H](n3cc(-c4ccc(F)cc4)nn3)CN2Cc2cccs2)cc1	0	1	-6	0.8	.	-11
NC(=O)c1cc2n(n1)C(C(F)(F)F)CC(c1ccco1)N2 (stereo not given)	-2	-2	-11	-0.3	-6	-2
COc1ccc(NC(=O)CN2C(=O)CSc3ncccc32)cc1	6	16	-4	0.3	-18	-2
CCCNC(=O)c1ccc2c(c1)C1C3CCC(C3)C1C(c1ccccc1)N2 (stereo not given)	-13	-5	-13	-1.0	-12	-10
CC(C)(C)c1ccccc1OCC(O)CN1CCN(c2ccccn2)CC1 (stereo not given)	0	-17	0	0.4	3	-4
O=C(Cc1ccc([N+](=O)[O-])cc1)N/N=C/c1cccs1	6	5	-23	0.6	-12	-12
COc1ccc(S(=O)(=O)Nc2cccc(N(C)S(C)(=O)=O)c2)cc1Br	0	4	15	1.1	-4	6
CC(NC(C)c1ccccc1Cl)C(=O)Nc1cccc(S(=O)(=O)N2CCCCC2)c1 (stereo not given)	.	-3	-8	-0.4	6	-8
COc1ccc2cc(C(=O)NCc3ccco3)c(=Nc3ccc(C(=O)O)cc3)oc2c1	0	22	-10	1.3	22	-9
CC(C)N=c1scc(-c2cccs2)n1/N=C/c1ccc(O)c(O)c1O	?	-14	55*	1.1	6	-76*
C[C@H]1CN([C@@H](C)CO)C(=O)c2cc(Br)cnc2O[C@H]1CN(C)C(=O)C1CCC1	?	11	-5	-0.1	.	-18
CN(c1ccc(C(=O)Nc2nccs2)cc1)S(=O)(=O)c1ccccc1	-10	9	-5	2.7	-10	?
COc1ccc(-c2csc(N=C(N)N)n2)cc1	-11	22	-9	0.6	17	-6
Cc1c(Nc2cc(N3CCCCCC3)c3nonc3c2[N+](=O)[O-])c(=O)n(-c2ccccc2)n1C	2	-4	-7	-0.9	-2	5
Cc1ccc(/C=[N+](\[O-])c2ccc(N(C)C)cc2)c2nsnc12	-25	-11	8	0.6	-21	?
Nc1n[nH]c(-c2ccccc2)n1	4	1	1	-0.3	-6	7
CC1(c2ccccc2)NC(=O)N(CC(=O)N(CC(=O)Nc2ccccc2C(F)(F)F)Cc2ccco2)C1=O (stereo not given)	3	-13	-26	0.9	1	0

Whole records from above.
Listed for COc1ccc(NC(=O)CN2C(=O)CSc3ncccc32)cc1 = CtBP-E1A blk: 6; TRPML1 blocker: 16; D2 potentiator: -4; TRPML1 ag: 0.3; TRPV1 potentiator: -18; Six1-Eya2 blk: -2
Listed for CN(c1ccc(C(=O)Nc2nccs2)cc1)S(=O)(=O)c1ccccc1 = CtBP-E1A blk: -10; TRPML1 blocker: 9; D2 potentiator: -5; TRPML1 ag: 2.7; TRPV1 potentiator: -10; Six1-Eya2 blk: ?
Listed for Cc1c(Nc2cc(N3CCCCCC3)c3nonc3c2[N+](=O)[O-])c(=O)n(-c2ccccc2)n1C = CtBP-E1A blk: 2; TRPML1 blocker: -4; D2 potentiator: -7; TRPML1 ag: -0.9; TRPV1 potentiator: -2; Six1-Eya2 blk: 5

Other results:
SMILES	CtBP-E1A blk	TRPML1 blocker	D2 potentiator	TRPML1 ag	TRPV1 potentiator	Six1-Eya2 blk
Cc1cccc(OCC(O)Cn2c(N3CCCCC3)nc3c2c(=O)[nH]c(=O)n3C)c1 (stereo not given)	15	-10	5	0.6	5	7
O=C1CC(N2CCOCC2)C(=O)N1c1cc(Cl)cc(Cl)c1 (stereo not given)	0	8	-2	1.2	1	2
O=C1Nc2ccc3sc4ccccc4c3c2C1=O	2	7	-10	-0.6	4	?
Cc1cc(C)cc(SCc2noc(C(=O)NCC3CC3)c2C(=O)NCC2CC2)c1	22	-7	-9	1.2	.	12
O=C1CS/C(=N/N=C/c2cccs2)N1Cc1ccc(F)cc1	2	14	-6	2.8	1	-1
O=C(c1cnn2c(C(F)(F)F)cc(-c3ccco3)nc12)N1CCCc2ccccc21	4	0	-8	0.4	5	3
Cc1cccc(C)c1NC(=O)CSc1nc(C2CC2)nc2ccccc12	1	19	0	0.6	-19	3
Cc1ccc(NCC(=O)N/N=C/c2cccc(Br)c2)cc1	3	11	-10	0.6	-9	-8
COc1ccc(C(=O)N2CCN(Cc3ccccc3C)CC2)cc1OC	2	28	-21	0.9	7	3
CC(=O)c1cccc(NC(=O)CN2C=NS(=O)(=O)c3ccc(C)cc32)c1	1	49&-11	-9	-0.3&-0.7	18	-1
Cn1c(=O)c2c(O)c(C=Nc3ccc(F)cc3)c(=O)n(C)c2n(C)c1=O	5	7	-10	-0.4	-3	-3
CCOC(=O)CSc1n[nH]c(-c2cccnc2)n1	-1	22	-16	0.7	.	8
CC1CCN(C(=O)CSCC(=O)O)CC1	-8	11	-5	-0.4	7	12
Cc1nn(C)c(Oc2cccc(Cl)c2)c1C(=O)O	11	0	-9	3.3	-8	1
O=C(Nc1cccc(Cl)c1)C1=CC=CN2CCS(=O)(=O)N=C12	4	-9	-9	0.6	.	-4
CSCC[C@H](NC(=O)[C@@H]1Cc2ccccc2CN1)C(=O)Nc1ccc2c(c1)OCCO2	-7	11	-29	0.5	-12	-18
Cc1ccc(SCC(=O)NCCSC(C)(C)C)cc1	0	2	-8	-0.3	-14	2
CC(C)c1ccc(NC2CCCN(C(=O)c3cc(C(C)C)[nH]n3)C2)cc1 (stereo not given)	-2	-4	-4	-1.2	-50	-8
COc1ccc(CCNC(=S)Nc2cccc(C)c2C)cc1	2	5	-9	1.3	-12	-3
c1ccc(CN2CCN(c3ncnc4nc[nH]c34)CC2)cc1	-2	-7	8	0.1	?	1
N#Cc1c(-c2ccco2)ccn(Cc2ccc(F)cc2)c1=O	.	24	-10	0.4	4	2
COc1ccc(NC(=O)c2cccnc2Nc2ccc(OC)cc2)cc1	-3	1	-11	0.2	-5	-26
CCC(C)(C(=O)NC1CCCCC1)N(C(=O)c1cnccn1)c1c(C)n(C)n(-c2ccccc2)c1=O (stereo not given)	5	4	-9	-0.8	21	8
Cc1cc(C)c2[nH]c(C(=O)N3CCC(n4nccc4NC(=O)C4CC4)CC3)c(C)c2c1	6	0	-10	0.0	19	0
O=C(OCC(=O)N1CCCCCC1)c1ccccc1Br	3	-11	0	0.1	0	7
O=C1C=C(c2ccc(-c3ccccc3)c(F)c2)C[C@@H](c2ccc(Cl)cc2)C1	-15	-6	0	-0.4	3	11
CCN(CC)S(=O)(=O)c1ccc(C(=O)N2CCN=C2SCc2cccnc2)cc1	4	2	15	-0.2	-14	3
COc1ccc(S(=O)(=O)Nc2cccc3c2O[C@H](CN(C)C(=O)NC(C)C)[C@@H](C)CN([C@H](C)CO)C3=O)cc1	-23	1	-7	0.7	.	-3
CCOC(=O)c1ccc(NC(=O)Cn2nnc(-c3ccccc3C)n2)cc1	-1	-15	-10	2.2	5	3
CC(C)(C)n1nnnc1CN1CCC(NC(=O)NC2CCCCC2)CC1	-3	2	-18	-0.4	15	0
CCOC(=O)c1[nH]c2cc3c(cc2c1NC(=O)CN1CCC(C)CC1)OCO3	-2	-11	-28	-0.7	-14	-4
O=C(NCCc1ccccc1)C1=CCN(S(=O)(=O)c2ccccc2)CC1	4	4	-6	-0.1	-5	5
COc1cc(O)c(C(CCN2CCCC2)c2cc(OC)c(OC)c(OC)c2)c(OC)c1 (stereo not given)	-3	-18&9	-13	0.6&0.5	?	-8
Cc1cc(=O)n2[nH]c(N)c(N=Nc3ccccc3F)c2n1	-15	-3	-29	2.3	2	-22
CC(C)(C)NC(=O)CSc1ncccc1-c1nc2ccccc2[nH]1	-1	15	-1	-0.2	-4	4
CCc1cc2c(N[C@@H](Cc3c[nH]c4ccccc34)C(=O)O)ncnc2s1	-4	-6	2	-0.5	-8	-2
C[C@H](CO)N1C[C@H](C)[C@@H](CN(C)Cc2ccncc2)Oc2c(NC(=O)Cc3ccccc3)cccc2C1=O	-22	-5	-10	0.9	.	6
Cc1n[nH]c(C)c1S(=O)(=O)N1CCN(C2CCCCC2)CC1	4	2	0	-0.8	-1	23
Cc1ccc(S(=O)(=O)Nn2c(C)ccc2C)cc1	0	-10	-3	-0.5	4	-3
